TSHR ag – agonists of human thyroid stimulating hormone receptor | P16473 | HEK293-CNG-TSHR cells (CNG channel as cAMP sensor), membrane potential dye, cAMP | Potency, µM (series often up to 57.1 µM), for the others: at the top dose activation, actives largely listed as activators | actives 0.48% (n = 73,000) | AID 926; active = well fitted activation curve of enough size with the parental cells flat; inconclusive = any curve in the parental cells; inactive = parental cells flat and receptor cells flat or falling; note: potency is the fitted concentration of half-maximal effect; % of control where 0% means no effect; weak receptor curves with flat parental cells got no call and are not listed
Target sequence (P16473 whole entry, looked up): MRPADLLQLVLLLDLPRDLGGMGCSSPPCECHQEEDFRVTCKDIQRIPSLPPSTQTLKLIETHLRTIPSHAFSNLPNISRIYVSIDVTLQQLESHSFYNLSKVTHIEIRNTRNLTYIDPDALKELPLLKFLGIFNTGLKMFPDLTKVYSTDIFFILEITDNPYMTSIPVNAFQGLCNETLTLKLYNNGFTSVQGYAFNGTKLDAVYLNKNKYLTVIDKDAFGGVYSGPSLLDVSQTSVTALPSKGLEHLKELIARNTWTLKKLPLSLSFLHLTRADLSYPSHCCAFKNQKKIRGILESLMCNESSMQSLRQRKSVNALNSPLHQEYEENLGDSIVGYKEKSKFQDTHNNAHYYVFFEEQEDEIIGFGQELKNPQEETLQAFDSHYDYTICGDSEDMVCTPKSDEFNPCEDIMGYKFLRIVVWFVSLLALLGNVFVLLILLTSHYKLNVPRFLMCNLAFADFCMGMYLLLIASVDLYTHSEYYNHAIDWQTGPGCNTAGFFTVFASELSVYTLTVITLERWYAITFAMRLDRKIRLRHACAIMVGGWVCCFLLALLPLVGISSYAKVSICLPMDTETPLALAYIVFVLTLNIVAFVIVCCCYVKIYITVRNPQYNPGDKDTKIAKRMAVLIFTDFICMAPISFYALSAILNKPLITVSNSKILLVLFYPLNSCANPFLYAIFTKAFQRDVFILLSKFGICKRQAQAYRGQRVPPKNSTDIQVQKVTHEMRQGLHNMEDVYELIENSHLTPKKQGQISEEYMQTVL
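HEK 293 cells stably expressing TSHR and a cAMP-gated CNG channel; parental CNG-only cells as counterscreen. Cells preloaded 60 min with membrane potential dye plus 100 uM RO 20-1724, then compound 30 min; fluorescence read at 590 nm.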
A488 autofl – compound autofluorescence in A488 spectral region; compound autofluorescence, A488 spectral region, dye equivalency; hits give high values; max dye equivalency, M; actives 0.1% (n = 59,000); active = above 10 nM dye equivalent; inconclusive = 1 to 10 nM; inactive = 1 nM or less; about half of its hits are not listed in these tables;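 note: highest value over a series up to 38 µM; compound alone in buffer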
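Read-out: relative fluorescence at 480/540 nm, expressed as Alexa 488 dye-equivalent concentration from a six-point A488 standard included per plate. Conditions: 100 mM Tris, pH 8.0; 15 min incubation, room temperature.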
A647 fluor – A647 region autofluorescence | Compound fluorescence, A647 channel (570/671 nm), Tris buffer | max dye-equivalent concentration, M | 59,000 tested, under 10 active; active means above 1 µM dye equivalent; inconclusive means 0.1 to 1 µM; inactive means 0.1 µM or less;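 note: values scaled relative to a standard on each plate; highest value over a series up to 38 µM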
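Compounds pinned into 100 mM Tris pH 8.0, 15 min at room temperature, then read with 570 nm excitation/671 nm emission filters. Fluorescence normalized to an on-plate six-point Alexa 647 standard curve, giving dye-equivalent concentration per compound concentration.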
Resorufin autofl – resorufin region autofluorescence; Compound fluorescence, resorufin region 547/598 nm, buffer; hits give high values; max dye-equivalent concentration, M; actives 0.04% (n = 59,000); AID 588; active = above 10 nM dye equivalent; inconclusive = 1 to 10 nM; inactive = 1 nM or less; a few of its hits are not listed in these tables; note: highest value over a series up to 38 µM
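Read-out: intrinsic compound fluorescence at ex 547/em 598 nm after 15 min at RT in pH 8.0 Tris (100 mM). Values expressed as resorufin-equivalent concentration from per-plate standard series.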
AID923 – qHTS Assay for Allosteric/Competitive Inhibitors of Caspase-1: Spectroscopic Profiling in AFC Spectral Region; AID 923, 2007; actives 1.1% (n = 75,000); compound fluorescence, AFC spectral region (405/520 nm); almost no hit is shown here; Potency, µM (doses to about 57.5 µM), for the others: at the highest dose fluorescence increase, hits mostly activators; active = well fitted activation curve with a large enough effect; inconclusive = small, poorly fitted or top-dose-only effect;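 note: potency is the fitted concentration of half-maximal effect; 0% is about no effect; scaled to a free AFC standard on each plate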
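Compound autofluorescence profiled at 405 nm ex/520 nm em during kinetic caspase 1 run (50 nM enzyme, 5 uM Ac-WEHD-AFC, HEPES pH 7.5, 10 mM DTT). Titration up to 57 uM; baseline from regression intercept, normalized to AFC standard curve.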
Numbers without * were called inactive; i = inactive; u = inconclusive; x = no result given; [ ] = another dose, or the depositor's remark. Not all compounds are listed. The share of hits here may be higher or lower than overall.

SMILES | TSHR ag | A488 autofl | A647 fluor | Resorufin autofl | AID923
Cc1cc(NC(=O)CSc2nnc3c(C)cc4cc(C)c(C)cc4n23)no1 | 11% | i | 1.1e-09 | i | 1.4%
CC(NC(=O)c1ccc2c(c1)OCCO2)C(=O)O (centres undefined) | 1% | i | 1e-09 | i | 2.0%
COCCn1c(=S)[nH]c2cc(OC)c(OC)cc2c1=O | -1% | i | 2.7e-08 | i | -0.1%
Cn1nnnc1SCC(=O)Nc1ccc(Cl)cc1Cl | -1% | i | 1e-09 | i | -1.5%
CCOC(=O)C1=C(C)NC(=O)NC1c1ccc(OCC(=O)Nc2ccccc2)c(OC)c1 (centres undefined) | 5% | x | x | x | 0.9%
NC(=O)OC[C@H](O)COc1ccc(Cl)cc1 | -6%[25.6 µM] | i | 1e-09 | i | 2.3%[25.7 µM]
Cc1nnc(SCC(=O)Nc2ncc3c(n2)CCCC3=O)s1 | 0% | i | 2.6e-09 | i | -1.4%
COc1ccccc1-c1cncnc1NCCN1CCOCC1 | 1% | i | 1e-09 | i | -2.3%
Cn1c(CCN2CCCCC2)nc2cc(NS(=O)(=O)c3ccc(F)cc3)ccc21 | 9% | i | 3.3e-09 | i | 0.5%
CC(C)=CC(=O)Nc1ccccc1Br | 0% | i | 1e-09 | i | -1.0%
COc1ccc2c(c1)c1c(n2C(C)=O)C(OC(C)=O)=NCC1 | 15% | i | 1.4e-08 | i | 5.3%
CCCCOC(=O)c1[nH]c(C)c(C(=O)OC)c1C | x | i | 1e-09 | i | x
CCOC(=O)CSc1nc2c(sc3ccccc32)c(=O)n1CCCN1CCOCC1 | u | i | 1e-09 | i | 0.2%
Cc1[nH]cnc1CSCCN | 16% | i | 3.6e-08 | i | -1.7%
CC1(C)Cc2nc3sc4c(=O)[nH]cnc4c3cc2CS1 | 5% | i | 1e-09 | i | 0.0%
COc1ccccc1NC(=O)c1oc2ccc(C)cc2c1C | u | x | x | x | 2.1%
CCCCCC(=O)N(CN1C(=O)CCC1=O)c1ccccc1 | 7% | i | 3.4e-08 | i | 1.0%
O=C1C2C(C(=O)N1CC1CCCO1)C1C=CC2C12CC2 (centres undefined) | u | x | x | x | 1.3%
Cc1ccc(Cn2ncc3c(N4CCN(c5ccccc5C)CC4)ncnc32)cc1 | x | i | 3.6e-08 | i | 3.5%
O=C(CSc1ccc2nnc(-c3ccncc3)n2n1)Nc1ccc2c(c1)OCCO2 | 6% | x | x | x | 2.5%
Cc1cc(=O)n(C)c(=O)n1CCCCCN1CCCC1 | 1% | i | 1.7e-09 | i | -0.4%
CCN(CC)C(=O)CSc1ncnc2c(-c3cccs3)nsc12 | 26% | i | 2.4e-09 | i | 10%
O=C(O)CC(NS(=O)(=O)c1cccc2nsnc12)c1ccc(F)cc1 (centres undefined) | 0% | i | 1e-09 | i | -1.9%
COc1ccc(N(CC(=O)N2CCCC(C)C2)S(=O)(=O)c2c(C)nn(C)c2C)cc1 (centres undefined) | 3% | x | x | x | -0.5%
CCOc1cc(C#N)c(NC(=O)CSc2nnnn2-c2ccc(OC)cc2)cc1OCC | 24%[11.4 µM] | i | 1e-09 | i | 0.7%
O=C(NCc1ccco1)c1cc(S(=O)(=O)N2CCOCC2)c(Cl)cc1Cl | 6% | i | 1e-09 | i | -0.8%
CCOC(=O)c1cc2sccc2n1CC(=O)c1ccc2c(c1)OCCO2 | 1% | i | 1e-09 | i | 0.5%
Cn1c(CNC(=O)C(C)(C)C)nc2ccccc21 | 0% | i | 1e-09 | i | 0.1%
O=C(CN1CCOCC1)Nc1c2c(nc3ccccc13)N(Cc1ccccc1)CC2 | 10% | i | 1e-09 | i | 1.0%
CCOc1ccccc1N(CC(=O)O)S(=O)(=O)c1ccccc1 | 0% | i | 7.8e-09 | i | -1.4%

Reformatted with each value named: four of the compounds above.
CCOc1cc(C#N)c(NC(=O)CSc2nnnn2-c2ccc(OC)cc2)cc1OCC
  TSHR ag: 24%[11.4 µM]	A488 autofl: i	A647 fluor: 1e-09	Resorufin autofl: i	AID923: 0.7%

O=C(NCc1ccco1)c1cc(S(=O)(=O)N2CCOCC2)c(Cl)cc1Cl
  TSHR ag: 6%	A488 autofl: i	A647 fluor: 1e-09	Resorufin autofl: i	AID923: -0.8%

CCOC(=O)c1cc2sccc2n1CC(=O)c1ccc2c(c1)OCCO2
  TSHR ag: 1%	A488 autofl: i	A647 fluor: 1e-09	Resorufin autofl: i	AID923: 0.5%

Cn1c(CNC(=O)C(C)(C)C)nc2ccccc21
  TSHR ag: 0%	A488 autofl: i	A647 fluor: 1e-09	Resorufin autofl: i	AID923: 0.1%

New compounds follow.
SMILES | TSHR ag | A488 autofl | A647 fluor | Resorufin autofl | AID923
CCOC(=O)N1CCC(NC(=O)C2=C(C)C(=O)OC23CCC(C)CC3)CC1 (centres undefined) | 0% | x | x | x | 0.5%
CS(=O)(=O)Nc1ccc(C(=O)NCC2CCCO2)cc1 (centres undefined) | u | i | 2.6e-08 | i | -0.8%
COCCn1c(N2CCN(c3ccc(OC)cc3)CC2)nc2c1c(=O)n(C)c(=O)n2C | 9% | i | 4.5e-09 | i | -0.7%
Cc1cccc(NC(=O)Cn2cnc3c(cnn3-c3ccc(F)cc3)c2=O)c1C | -5% | x | x | x | 1.7%
O=C(CSc1nc(-c2ccncc2)nn1CC(=O)N1CCCCC1)NC1CCCC1 | 2% | i | 1.6e-08 | i | -3.0%
O=C(O)C1C2C=CC(C2)C1C(=O)NC1CCS(=O)(=O)C1 (centres undefined) | 10% | i | 6.1e-08 | i | -1.8%
O=S(=O)(c1cc(Cl)ccc1Cl)N1CCCCC1 | u | i | 1e-09 | i | 1.6%
COc1ccc(N2CCN(c3nc(NC(C)(C)C)nc(N4CCCCC4)n3)CC2)cc1 | -2% | i | 1e-09 | i | 0.6%
C[C@@H](C(=O)NCCc1c[nH]c2ccccc12)[C@@H]1C[C@@]1(C)[C@@H](NC(=O)OCc1ccccc1)c1ccccc1 | 13% | x | x | x | 1.1%
CC(C)CCN1CC(C(=O)NCc2ccc(F)cc2)CC1=O (centres undefined) | 1% | i | 2.4e-09 | i | 0.1%
CC(=O)Nc1ccc(S(=O)(=O)N2CCSC2c2ccc(Cl)cc2)cc1 (centres undefined) | 18% | i | 4.4e-09 | i | -1.4%
CCCNC(=O)C(CC)NS(=O)(=O)c1ccc(OC)cc1 (centres undefined) | 4% | x | x | x | 1.9%
Cc1cccc(CNc2ncnc3ccc(-c4ccccc4CN(C)C)cc23)c1 | 0% | i | 2.1e-09 | i | -1.4%
Cc1cc(=O)[nH]c(S/C=C/c2ccccc2)n1 | -2% | i | 3.9e-08 | i | -0.7%
CCOc1ccccc1C1C(C(=O)OC)=C(N)OC2=C1C(=O)CCC2 (centres undefined) | 5% | i | 1e-09 | i | 0.3%
Cc1nnc(SCC(=O)c2ccc(S(=O)(=O)N3CCOCC3)cc2)n1-c1ccccc1 | 1% | i | 2.6e-08 | i | 0.0%
COc1ccc(-c2nnn(CC(=O)N(CC(=O)NCCC(C)C)c3ccccc3)n2)cc1OC | u | i | 6.2e-08 | i | -0.6%
O=C(O)C1CC(=O)N(C2CCCCCC2)C1 (centres undefined) | -1%[11.4 µM] | i | 1.3e-08 | i | -0.4%
COc1ccccc1CNc1ccnc(-c2c(C)noc2C)n1 | u | i | 1e-09 | i | -0.9%
NC(Cc1ccccc1)=NCC(=O)O | -6%[11.4 µM] | i | 1e-09 | i | -0.1%[11.5 µM]
COc1cccc2cc(C(=O)Nc3cccnc3N3CCOCC3)c(=O)oc12 | -8% | i | 2.4e-09 | i | 0.1%
Cc1ccc(C(=O)O)cc1 | 6% | x | x | x | 2.3%
O=C(O)c1cc2cc(Cl)cc(Cl)c2oc1=O | 4% | i | 3.3e-08 | i | 15%
CCc1cc(C(=O)N2CCOCC2)c(NC2=NS(=O)(=O)c3ccccc32)s1 | -2% | i | 4.6e-09 | i | 1.4%
CC1(C)CO[C@H](CC(=O)O)CN1 | 5% | x | x | x | -0.6%
CN(C)C(=O)c1ccc(-c2nc(Nc3ccc(F)cc3)c3ccccc3n2)cc1 | 32µM* | i | 2.4e-08 | i | -0.5%
COc1ccc(N2CCN(C(=O)c3ccc(NS(=O)(=O)c4ccccc4)cc3)CC2)cc1 | -4% | i | 8.5e-08 | i | -0.2%
COc1ccc(-c2cn3c(n2)CCC3)cc1 | -2% | i | 1.4e-09 | i | -0.5%
COc1cc(OC)cc(C(=O)NCc2n[nH]c(=S)n2-c2ccccc2)c1 | -1%[11.4 µM] | i | 2e-09 | i | -0.7%
CCOC(=O)N1CCN(C(=O)CN(Cc2ccccc2)S(C)(=O)=O)CC1 | 2% | i | 1e-09 | i | -0.5%
CCOC(=O)c1ccccc1NC(=O)Cn1c(-c2nonc2N)nc2ccccc21 | u | i | 2.8e-08 | i | 1.3%
O=C(c1cccc(F)c1)N1CCC[C@@]2(CCN(C(c3ccccc3)c3ccccc3)C2)C1 | u | i | 1e-09 | i | -0.4%
Cc1ccccc1-n1c(=O)cc(N2CCC3(CC2)OCCO3)[nH]c1=O | -1% | i | 2.1e-09 | i | 0.3%
O=c1cc(CSc2nnc(-c3cccs3)n2Cc2ccccc2)nc2sc3ccccc3n12 | u | i | 1e-09 | i | -0.5%
Cc1nc2c(-c3ccccc3)c(C)nn2c(C)c1CCC(=O)O | -1% | x | x | x | 3.4%
COc1ccc(S(=O)(=O)N2CCN(c3nc4ccccc4nc3-n3nc(C)cc3C)CC2)cc1 | 28% | i | 2.6e-08 | i | 0.9%
O=C(Cn1nc(-c2ccc3c(c2)OCCO3)ccc1=O)Nc1ccc(N2CCOCC2)cc1 | -1% | i | 3.1e-08 | i | 0.4%
CC(C)c1ccc(NC(=O)C(c2ccccc2)N2CCN(C=O)CC2)cc1 (centres undefined) | 1% | i | 3.3e-08 | i | 1.6%
Cc1ncsc1CCSc1nc2ccccc2c(=O)n1C | x | i | 1e-09 | i | -2.6%
O=C(O)c1ccc(N2C(=O)CC(Cc3ccccc3)C2=O)cc1 (centres undefined) | 6% | x | x | x | -0.6%

Full records, quoted from the list.
Shown for O=c1cc(CSc2nnc(-c3cccs3)n2Cc2ccccc2)nc2sc3ccccc3n12 = TSHR ag = u; A488 autofl = i; A647 fluor = 1e-09; Resorufin autofl = i; AID923 = -0.5%
Shown for COc1ccccc1NC(=O)c1oc2ccc(C)cc2c1C = TSHR ag = u; A488 autofl = x; A647 fluor = x; Resorufin autofl = x; AID923 = 2.1%

(next part)
SMILES | TSHR ag | A488 autofl | A647 fluor | Resorufin autofl | AID923
COc1ccccc1N1CCN(C(CNS(=O)(=O)c2cc(F)ccc2F)c2cccnc2)CC1 (centres undefined) | -8% | i | 1.5e-09 | i | 1.0%
COc1ccc(Cn2nnnc2C(c2ccc(C)cc2)N2CCN(C3CCCC3)CC2)cc1 (centres undefined) | 13% | i | 1.2e-08 | i | -1.5%
CCCCN(C)Cc1c(C)[nH]c2ccc(OCC)cc2c1=O | 1% | x | x | x | -4.4%
CC1CCN(CCC(=O)Nc2ccc(Br)cc2)CC1 | 0% | i | 2e-09 | i | -0.5%
O=C(NCc1ccco1)c1cc(-c2cccnc2)nc2ccc(Cl)cc12 | u | i | 1e-09 | i | -2.0%
Cc1ccccc1NS(=O)(=O)c1cccc(-c2nnc(-c3ccccc3)o2)c1 | u | x | x | x | -0.6%
CCN(CC)S(=O)(=O)c1ccc(NC(=O)CN(c2ccc(OC)cc2OC)S(C)(=O)=O)cc1 | -5% | i | 1.9e-08 | i | -1.5%
O=C(CN1C(=O)c2ccccc2S1(=O)=O)Nc1ccc(S(=O)(=O)N2CCCCCC2)cc1 | 0% | i | 3.4e-09 | i | 2.0%
CN(C)c1nc(-c2cccnc2)nc2ccccc12 | u | i | 1e-09 | i | 1.9%
CCN(CC(=O)NCCc1ccc(S(N)(=O)=O)cc1)Cc1nc2ccccc2c(=O)[nH]1 | -2% | i | 4.9e-09 | i | 2.4%

Compound activity (PubChem BioAssay)
